Source: PubChem
CSC inhib: blocks cancer stem cells; cancer stem cell-like cells viability, luminescence; inhibition, % at 7.5 µM; 1.1% of 300,000 active; AID 2717;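 active = mean at 75% or more and at least half the replicates too; tested in HMLE shEcad cells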;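 also: 0% = median of negative and 100% = median of positive control wells; the first replicate is given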
MT1-MMP act inh: MT1-MMP (human) activation inhibition; P50281; HT1080 RFP-PRO-GFP cells, GFP/RFP ratio fluorescence, overnight; percent of plate control window, DMSO zero; GFP/RFP ratio change, % at 20 µM; 0.061% of 360,000 active; AID 651647;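 active = GFP/RFP ratio change of at least 30% with cell ATP level not reduced by more than half and red fluorescence within 50% of control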; also: strong numbers were not always called active
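Assay system: HT1080 cells carrying an RFP-PRO-GFP reporter | Dosing: Single dose of 20 µM compound, 1% DMSO final | Incubation: Cells overnight before dosing, compound overnight, 37 °C, 5% CO2 | Evaluation: GFP/RFP fluorescence ratio | Control set: DMSO and RFP-L50D-GFP cell wells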
PABP polyA inh: blocks human PABP binding to poly(A) RNA; P11940; fluorescence polarization; inhibition, % at 35 µM; 1% of 290,000 active; AID 2014;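 active = 50% or more with normal probe brightness, or confirmed in later tests; about a fifth of its hits are not listed in these tables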;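 also: calls also rest on retests at 20 µM and on dose response follow-up; controls were probe without protein and protein plus probe with vehicle; some compounds called inactive have numbers as strong as hits; many hits fall short of the cut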
eIF4H inh: inhibitors of RNA binding by human eIF4H | eIF4H fluorescence polarization binding assay | inhibition, % at 35 µM | 0.94% of 290,000 active;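 active = 50% or more with normal probe brightness, or confirmed in later tests; about a fifth of its hits are not listed in these tables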;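 also: calls also rest on retests at 20 µM and on dose response follow-up; 0% = protein and probe with vehicle and 100% = probe without protein; strong numbers were not always called active; many hits fall short of the cut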
Rce1 inhib: blocks yeast Ras-converting enzyme; AID 2563; yeast membranes, quenched prenylated peptide cleavage fluorescence; calls only; 0.27% of 290,000 active; Q03530;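 active = fall in fluorescence gain of 50% or more versus controls, with final raw signal at or below 3038400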;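 also: plate controls were neutral control wells for no effect and wells lacking membranes for full effect; tested at 10 µM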
Target sequence (Q03530 whole entry, looked up): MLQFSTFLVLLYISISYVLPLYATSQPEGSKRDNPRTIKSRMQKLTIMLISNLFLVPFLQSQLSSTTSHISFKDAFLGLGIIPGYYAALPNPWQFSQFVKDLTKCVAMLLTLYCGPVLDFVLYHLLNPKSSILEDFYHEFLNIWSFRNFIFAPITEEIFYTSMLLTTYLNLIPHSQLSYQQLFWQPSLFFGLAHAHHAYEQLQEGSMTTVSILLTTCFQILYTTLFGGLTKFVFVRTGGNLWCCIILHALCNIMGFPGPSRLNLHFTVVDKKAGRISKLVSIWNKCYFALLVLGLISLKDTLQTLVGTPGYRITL
UUG fidelity: modulators of start codon recognition fidelity in yeast; S. cerevisiae UUG-firefly luciferase reporter, luminescence/redox ratio; activity score, % at 18.7 µM; 0.13% of 350,000 active; AID 602363;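 active = replicate mean at a twofold rise or more, about +100% in these data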;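 also: firefly luciferase made from a UUG start codon reports start codon fidelity; reporter light over untreated wells divided by growth signal over untreated wells; some hits fall short of that in this replicate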
Env fusion inh: HIV envelope-mediated fusion inhibition | HeLa-JRFL Env/CEM21 cell fusion, luciferase | inhibition, % at 12.3 µM | 1.1% of 360,000 active;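 active = mean replicate inhibition score of at least 50 and every replicate individually at or above 50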;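 also: 0% = plate neutral controls and 100% = maraviroc near 300 nM; one replicate is shown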
eIF4H inh retest: also measured in eIF4H inh; calls as there; inhibition, %; compound at 20 µM; confirmation average;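 mean of two retest wells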
PABP polyA inh retest: also measured in PABP polyA inh; calls as there; inhibition, %; compound at 20 µM; confirmation repeats;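 mean of two retest wells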
MT1-MMP act inh RFP: second read-out of MT1-MMP act inh, no call of its own (marks repeat the call); RFP signal change, %; measured here: RFP expression control read;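 0 = vehicle wells; hits needed this value within 50% of zero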
Active calls of the source: *; i = inactive; · = no result given; & = joins results of further samples. Some of the compounds tested; count on the stated rates, not on these rows.

SMILES	CSC inhib	MT1-MMP act inh	MT1-MMP act inh RFP	PABP polyA inh	eIF4H inh	Rce1 inhib	UUG fidelity	Env fusion inh	others
CCOc1ccc(C2CC(=O)n3nc(C45CC6CC(CC(C6)C4)C5)nc3S2)cc1OC (configuration not stated)	-3	1	7	6	1	i	7	·
O=C(O)CCCC(=O)Nc1ccc(OCc2nc3ccccc3s2)cc1	9	-1	4	21	43	i	-9	-34
COC(=O)c1[nH]c2c(c1C)C(=O)CC(c1ccc(C)cc1)C2 (configuration not stated)	-3	1	3	4	4	i	-6	·
O=C(CNC1CCCCC1)NN=C(c1ccccc1)c1ccccc1	2	-2	-5	14	0	i	·	18
O=C(O)COc1c(F)c(F)c(C(F)(F)F)c(F)c1F	1	-2	3	10	-11	i	-18	-116
Cc1ccc(C)c(-n2cc(CN3CCNC(=O)CC3)c(-c3ccccc3)n2)c1	-11	-4	-2	-8	-13	i	·	5
C[C@@H]1NS(=O)(=O)c2cc(Cl)ccc2O[C@@H]1c1ccccc1	·	3	-3	·	·	·	-12	-16
CCCCn1c(N)c(N(CCOC)C(=O)c2ccc(Cl)c(S(=O)(=O)N3CCCC3)c2)c(=O)[nH]c1=O	-10	-4	2	14	10	i	8	5
O=C(CSc1cccc[n+]1[O-])Nc1cccc(Oc2ccccc2)c1	16	-1	-13	-3	-14	i	·	-4
COC(=O)c1cc(OC)c(OC)cc1NC(=S)N1CCN(C)CC1	-7	-4	4	-5	-1	i	-22	-30
CC1CC(C)CN(Cc2nc(N)nc(Nc3ccc4ccccc4c3)n2)C1 (configuration not stated)	56	2	-2	-12	-10	i	1	·
COc1ccc(NC(=O)C2CCCN(S(=O)(=O)c3cccnc3)C2)cc1 (configuration not stated)	-15	2	-3	12	-3	i	-6	·
Cc1ccc(NC(=O)NCCCN2CCCC2=O)cc1Cl	0	1	0	-1	2	i	-10	-27
COc1ccc(CCNS(=O)(=O)c2ccc(F)cc2)cc1OC	1	-2	0	-8	8	i	-19	·
COc1ccc(OC)c(CNC(=O)CCn2c(=O)c3cccn3c3ccc(F)cc32)c1	-9	-4	5	7	-3	i	-11	8

Grouped by structure, the entries above containing an NH in an aromatic ring (two)
SMILES	CSC inhib	MT1-MMP act inh	MT1-MMP act inh RFP	PABP polyA inh	eIF4H inh	Rce1 inhib	UUG fidelity	Env fusion inh	others
COC(=O)c1[nH]c2c(c1C)C(=O)CC(c1ccc(C)cc1)C2 (configuration not stated)	-3	1	3	4	4	i	-6	·
CCCCn1c(N)c(N(CCOC)C(=O)c2ccc(Cl)c(S(=O)(=O)N3CCCC3)c2)c(=O)[nH]c1=O	-10	-4	2	14	10	i	8	5

Next structures
SMILES	CSC inhib	MT1-MMP act inh	MT1-MMP act inh RFP	PABP polyA inh	eIF4H inh	Rce1 inhib	UUG fidelity	Env fusion inh	others
Cc1ccc(S(=O)(=O)NC(Cc2ccccc2)C(=O)O)cc1 (configuration not stated)	-11	-1	0	-8	0	i	·	3
CCOC(=O)CCCn1nc(C)n2c(cc3sccc32)c1=O	3	0	2	2	-5	i	-10	·
COC(=O)NNC(=O)Cc1cccc2ccccc12	5	-3	-4	-8	-5	i	9	3
COc1ccccc1-n1c(Cc2cccs2)n[nH]c1=S	-6	-3	2	-6	-1	i	·	3
CC(C)(C)OC(=O)N[C@H](/C=C/c1ccccc1)C(=O)OC(C)(C)C	-2	-2	-5	·	·	·	-10	-4
O=C(NCCc1ccccc1Cl)c1ccc2nc3ccccc3c(=O)n2c1	·	0	1	4	4	i	-2	-3
CC1CCCN(C(=O)C2CCN(S(=O)(=O)c3cccc4nonc34)CC2)C1 (configuration not stated)	-12	3	1	-1	4	·	-2	1
COc1cc(C(=O)N=C2SC3CS(=O)(=O)CC3N2c2ccccc2)cc(OC)c1OC (configuration not stated)	-28	-4	-4	0	-4	i	-4	4
COc1ccccc1CNCc1cccc(Oc2ccccc2)c1	11	2	4	-6	-2	i	-12	0
CC(C)Cc1nc(NCCN2CCOCC2)c(C#N)c2c1COC(C)(C)C2	·	-6	-2	-11	-6	i	26	·
Cc1ccc(Cl)cc1-c1ccc(/C=N/n2cnnc2)o1	7	0	1	8	3	i	·	4
CCOC(=O)NC1Cc2ccccc2C1Sc1ccccn1 (configuration not stated)	-1	0	2	9	-6	i	-1	3
CCN(CC)C(=O)CSC1=C(C#N)C(c2ccco2)C(C(=O)OCCOC)=C(C)N1 (configuration not stated)	14	3&2	4&-1	-6	5	i	12&-8	·
O=C(CNc1cccc(C(F)(F)F)c1)N/N=C/c1ccccc1C(=O)O	-3	4	1	0	-5	·	-10	12
CCOC(=O)C1(Cc2ccc(OC)cc2)CCN(C(=O)c2cc(C)nn2C)CC1	9	2	-21	9	-10	i	-15	4
COc1ccc(/C=C/C(=O)N2CCN(C)CC2)cc1OC	-2	2	2	3	0	i	-8	0
CC(NC(=S)NC1CCCCC1)C(c1ccccc1)N1CCOCC1 (configuration not stated)	4	7	8	31	3	i	-29	-7
Nc1nc(SCc2ccc([N+](=O)[O-])cc2)nc2nc3c(cc12)CCCC3	-6	0	8	-4	27	i	-7	-20
O=C(O)Cn1c2ccccc2c2ccccc21	8	-2	4	6	-3	i	·	3
Cc1ccc(C2(CC(=O)Nc3nccs3)CCOC(C(C)C)C2)cc1 (configuration not stated)	·	0	5	-16	-10	i	·	6
CC(=O)Nc1cccc(NC(=O)C(=O)Nc2ccc3c(c2)N(C(=O)C2CC2)CCC3)c1	·	3	0	·	·	i	·	-14
COC(=O)c1ccc(C2/C(=C(/O)c3ccc(OC)cc3)C(=O)C(=O)N2Cc2ccco2)cc1 (configuration not stated)	2	0	2	-10	1	i	-20	-11
O=C1CSC(c2cccnc2)N1c1ccc(Cl)cc1 (configuration not stated)	-16	1	3	-12	-2	i	-13	4
Cc1cc(OCCN2CCOCC2)ccc1Cl	6	0	-1	14	-5	i	-7	6
O=C(Nc1cccc(C(F)(F)F)c1)c1ccccc1NC(=O)C1CCCCC1	11	0	3	-4	-8	i	·	21
CCCNC(=O)NC(=O)CSc1nc(C)cs1	-9	4	4	-6	-5	i	·	-7
COc1ccc(CN2CCNC(=O)C2CC(=O)NC2CCCCCCC2)cc1OC (configuration not stated)	-8	1	-2	-2	-4	i	-2	17
COc1ccccc1NS(=O)(=O)c1ccc(Cl)c(NC(=O)c2sc3cc(Cl)ccc3c2Cl)c1	14	3	1	3	7	i	·	0
COc1ccc2cc(/C=N/O)c(Cl)nc2c1	·	-9	-4	15	3	i	·	1
CCCn1c(SCC(=O)Nc2c(C)cccc2CC)nnc1C(C)C	0	-1	-1	0	8	i	-3	·
CCN(CC)c1ccc(NS(=O)(=O)c2ccc(OC)cc2)cc1	-6	4	6	-1	-1	i	·	11
O=[N+]([O-])c1cc(Cl)ccc1Oc1ccc(-c2nnco2)cc1	-5	0	2	-4	-6	i	·	6
O=C(Nc1ccc(Cl)c(Cl)c1)Nc1nccs1	95*	0	-20	-8	-10	i	-17	-387
Cc1ccc(S(=O)(=O)N(C)C)cc1NC(=O)c1c(-c2c(F)cccc2Cl)noc1C	5	5	3	3	-7	i	·	12
CCOc1cc(C(=O)Nc2ccccc2F)cc(Br)c1OCC	4	-3	-2	-5	-5	i	·	-2
CCOC(=O)N1CCC(N2CCCC(C(=O)c3cc(C)c(OC)c(C)c3)C2)CC1 (configuration not stated)	2	1	4	0	-10	i	·	17
O=C(Nc1cccc(S(=O)(=O)C(F)(F)F)c1)[C@H]1C[C@H](O)[C@@H](CO)O1	·	-1	2	·	·	·	4	20
CCc1nnc(NC(=O)CSc2nc3c(c(=O)n2CC)SC(C)C3)s1 (configuration not stated)	-1	4	-21	-2	-3	i	3	21
COc1ccc2[nH]c(C)c(CN3CCC(C)CC3)c(=O)c2c1	2	-4	4	8	6	i	-2	-9
O=C(NCc1ccccn1)C1CCN(C(=O)c2cc3sccc3n2Cc2ccc(F)cc2)CC1	-17	0	-7	44	5	i	-16	3
O=C(N/N=C/c1ccco1)c1cc(-c2ccccc2)nc2ccccc12	12	0	4	10	25	i	-21	4
Cc1ccc(C(=O)OCc2nc3ccsc3c(=O)[nH]2)o1	·	5	4	·	·	i	-6	·
COc1ccc(Nc2nnc(-c3ccc(C(=O)NCCO)cc3)c3ccccc23)cc1	-2	-3	-2	-8	9	i	-15	13
Cc1ccsc1CN1CC(=O)N(c2c(C)cccc2C)C1=S	·	-4	1	-3	0	i	·	27
O=C(NC(=S)N(Cc1ccccc1)Cc1ccccc1)C1CCCCC1	-8	-8	-8	2	7	i	-10	-42
O=C(Nc1ccc2c(c1)CCCN2C(=O)c1cccs1)c1ccccc1	17	0	-1	7	-10	i	3	1
COC1=C/C(=C/c2c(N)n3nc(-c4ccc(C)cc4)sc3nc2=O)C=CC1=O	·	-16	12	6	44	·	·	9
Cc1onc(-c2ccccc2Cl)c1C(=O)Nc1ccc(S(=O)(=O)N2CCCC2)cc1	-2	-4	4	-3	-5	i	-13	8
O=C(Nc1nc2cc3c(cc2s1)OCCO3)c1cccc(N2C(=O)CCC2=O)c1	-8	·	·	7	-5	i	-34	-114
Cc1ccc2cccc(N=Cc3c(C)[nH]n(-c4ccccc4)c3=O)c2n1	15	9	4	-1	13	i	-18	·
CN(CC(=O)Nc1ccc(OC(F)(F)F)cc1)S(=O)(=O)c1cnc[nH]1	-13	3	2	-6	-3	i	-11	-4
CC(=O)CN1Cc2ccccc2/C1=N\C(=O)Nc1ccccc1	-2	-3	-1	8	-1	i	-9	-41
O=C(Nc1ccc(S(=O)(=O)N2CCCCC2)cc1)c1ccccc1F	-3	1	-5	13	4	i	-9	2
C#CCOCCOCCOCCNc1nc(N2CCN(C(=O)[C@H](CCCCN)n3cc(CN)nn3)CC2)nc(N2CCN(C(=O)[C@H](CCC(=O)O)n3cc([C@@H](N)CCSC)nn3)CC2)n1	·	3	4	·	·	·	-16	19
CNC(=O)C(=O)Nc1cc2c3c(c1)C(C)C(=O)N3CCC2 (configuration not stated)	-6	0	0	-4	-9	i	-2	-4
CCCCNS(=O)(=O)c1ccc2nc(SCC(=O)Nc3cccc(F)c3)[nH]c2c1	·	-1	-8	7	0	i	-19	6
COc1ccc2[nH]cc(CCNC(=O)CCC3CCCCC3)c2c1	7	1	-6	2	-2	i	-8	-1
CC(=O)c1cccc(NS(=O)(=O)c2ccc3c(c2)oc(=O)n3C)c1	1	5	0	10	2	i	-12	14
CCCCCCN[C@H]1CCC2C3CC=C4C[C@@H](O)CC[C@]4(C)C3CC[C@@]21C (some centres not stated)	62	-1	-8	·	·	·	·	20
Cc1ccc(S(=O)(=O)c2cc3c(=O)n4ccccc4nc3n(Cc3ccco3)c2=N)cc1C	40	·	·	60*	67*	i	·	·	eIF4H inh retest=80*;PABP polyA inh retest=70*

Other records follow:
SMILES	CSC inhib	MT1-MMP act inh	MT1-MMP act inh RFP	PABP polyA inh	eIF4H inh	Rce1 inhib	UUG fidelity	Env fusion inh	others
CCOC(=O)Cc1csc(NC(=O)CSc2nnc(-c3ccc(NS(=O)(=O)CC)cc3)o2)n1	-10	-2	1	·	·	i	-16	·
CCN1CCN(S(=O)(=O)c2ccc(Cl)c(C(=O)NC3CC3)c2)CC1	·	-2	0	·	·	·	-13	2
O=C(CN1C(=O)NC2(CCCCCC2)C1=O)Nc1ccc(Cl)c([N+](=O)[O-])c1	8	20	0	·	·	·	-9	·
CSc1nnc(CSCc2ccc(Cl)cc2Cl)n1-c1ccccc1	·	-1	-5	-7	-8	i	-16	-43
O=C(N/N=C/c1ccc2c(c1)OCO2)c1ccc(NS(=O)(=O)c2cccs2)cc1	2	3	3	-2	3	i	·	26
COc1ccc(N(C(=O)CNC(=O)c2ccco2)C(C(=O)NCC2CCCO2)c2ccccc2)c(OC)c1 (configuration not stated)	-2	1	5	-1	-7	i	-9	4
COC(=O)/C(=C\c1c(OC)cc(OC)cc1OC)C(=O)c1ccc2c(c1)OCO2	-2	1	2	·	·	i	-10	-12
